# NPYLR7 ag – activates Aedes aegypti NPYLR7 receptor; 270,000 tested, 0.15% active; HEK293T NPYLR7/Galpha15, GCaMP6s calcium fluorescence; activation, % at 10 µM; in the data active = activation above about 40%;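 note: 0% = vehicle and 100% = reference agonist at the receptor; some compounds past the cut are filed as inactive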
# NPYLR7 ag max-min – further read-out of NPYLR7 ag, marked with its call; activation, %; measured here: Max-Min RFU normalised activation; some inactives read as strong as hits;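 span of the calcium signal over five minutes; 0% = vehicle and 100% = native peptide agonist; compound fluorescence can raise it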
# * = called active by the depositor; & = joins results of further samples.
# Value order – NPYLR7 ag | NPYLR7 ag max-min
- CCCCN(CC(N)=O)S(=O)(=O)Cc1cc(Cl)cc(Cl)c1
 : -2 | 52
- CN1CCN(C(c2ccc(F)cc2)c2ccc3cccnc3c2O)CC1 (configuration not stated)
 : 3 | 0
- CCn1nnc2c(=O)n(Cc3cc(OC)cc(OC)c3)cnc21
 : 0 | 24
- Cc1c(C(=O)NCC2CCC2)sc2nc(C(F)(F)F)ccc12
 : 2 | 1
- COc1ccc(C(=O)NC2CCC(NC(=O)[C@H]3CCCN3C(=O)c3ccc(C(C)(C)C)cc3)CC2)cc1 (some centres not stated)
 : -1 | 4
- c1ccc2sc(CSc3nnc(NC4CC4)s3)nc2c1
 : 2 | 3
- NC(=O)CN(C(=O)c1cccc(C(F)(F)F)c1)c1ccccc1
 : -2 | -3
- CC(NC(=O)c1n[nH]c2c1CCC2)c1nc2c(s1)CCCC2 (configuration not stated)
 : -4 | 0
- CCOc1ccccc1CN1CCN(C2CCN(C(C)=O)CC2)CC1CCO (configuration not stated)
 : 4 | 1
- O=C(/C=C\n1cnc(-c2cc(C(F)(F)F)cc(C(F)(F)F)c2)n1)NNc1cnccn1
 : -1 | -4
- Cc1ccc(-n2ncc3c(=O)n(NC(=O)c4ccc(OC(C)C)cc4)cnc32)cc1C
 : 13 | 7
- COc1ccccc1C(C)NC(=O)c1c(C)oc(-n2cccc2)c1C#N (configuration not stated)
 : -1 | -1
- CC(C)CCCC1CN(C(=O)CCc2cn[nH]c2)CCO1 (configuration not stated)
 : 13 | 0
- O=C(NCC1CCCCC1)c1ccc(-c2nnc(-c3ccccc3)o2)cc1
 : 7 | 11
- O=C(Cn1nc(-c2ccco2)c2sc(N3CCCC3)nc2c1=O)NCc1ccccc1
 : -3 | -7

# Continuation.
# Value order – NPYLR7 ag | NPYLR7 ag max-min
- Cc1c(Cl)cccc1NC(=O)CCCn1nc(-c2ccc(Cl)cc2)ccc1=O
 : 8 | 9
- COc1cc(NC(=O)c2ccc3c(c2)C(=O)N(Cc2cccnc2)C3=O)c(C(=O)O)cc1OC
 : 5 | 4
- CCOC(=O)C1CCCN(CC(=O)N2N=C(c3ccc(C)c(C)c3)CC2c2cc(OC)ccc2OC)C1 (configuration not stated)
 : -1 | 5
- CC(C)c1cccc(NC(=O)CN2CCCN(C)CC2)c1
 : 7 | 0
- O=C1CCC(C(=O)N2CCCCCCC2)CN1CCCc1ccccc1 (configuration not stated)
 : 2 | -2
- COC(=O)C(C)Sc1nnc(CNC(=O)c2ccccc2)o1 (configuration not stated)
 : 1 | 0
- CC(C)C1CN(C(=O)c2cccnn2)CCC(=O)N1Cc1ccc(F)cc1 (configuration not stated)
 : -3 | -8
- NC(=O)c1csc(CNc2ccc(F)cc2)c1
 : 0 | -1
- CC(=O)Nc1nc(CSc2ncccc2C(=O)O)cs1
 : -1 | -10
- COc1ccc(-c2c(C)nn(-c3ccccc3)c2C)c(C(=O)NC/C=C(\C)CCC=C(C)C)c1
 : -8 | -14
- Cc1cccc(COn2cccc(C(=O)Nc3ccc(Br)cc3)c2=O)c1
 : 13 | 15
- COc1cc(C)ccc1S(=O)(=O)N1CCN(Cc2cc(=O)c(OCc3cc(C)cc(C)c3)co2)CC1
 : 3 | -3
- Cc1ccc(NC(=O)CCc2c(C)[nH]c(=O)n(C)c2=O)cc1C
 : -8 | -12
- CSc1ccc(Cn2c(C)c(C(=O)NCc3ccc4c(c3)OCO4)sc2=O)cc1
 : 10 | 0
- CC(=O)N1CCc2cc(NC(=O)C3(C)CCN3Cc3ccoc3)ccc21 (configuration not stated)
 : 4 | 2

# (listing goes on)
# Value order – NPYLR7 ag | NPYLR7 ag max-min
- COc1ccc(CN(Cc2ccc(F)cc2)C(=O)c2ccco2)cc1OCc1nc(CO)cs1
 : -7 | 5
- C=CCCC(=O)N[C@H]1CC[C@@H]2SC[C@@H](C(=O)NCc3ccc(-c4csnn4)cc3)N2C1=O
 : -1 | -2
- O=C(NC(=CC=Cc1ccccc1)C(=O)N1CCCCC1)c1ccc([N+](=O)[O-])cc1
 : -10 | -13
- COCCn1c(=O)c2c(nc3n2CC(C)CN3c2ccc(F)cc2)n(C)c1=O (configuration not stated)
 : 3 | 3
- CCCCOc1ccc(-c2nc(C=Nc3cccnc3Cl)c(O)o2)cc1
 : 12 | 0
- COc1cccc(-c2nnc(SCc3ccc(C(=O)NC4CC4)cc3)n2Cc2ccccc2)c1
 : 0 | 5
- COCCN(CC(=O)Nc1nc(CC(=O)N2CCN(c3cccc(Cl)c3)CC2)cs1)C(=O)c1ccco1
 : -9 | -1
- CCC(=O)N1CCCc2ccc(NC(=O)NCCCc3ccccc3)cc21
 : -9 | -9
- O=C(CSc1nc2ccccc2n1Cc1ccccc1)N/N=C\c1cccnc1
 : -7 | -3
- CSC1(CNC(=O)N2CCC3CCCCC32)CCOCC1 (configuration not stated)
 : 2 | 1
- Cc1cc(C)cc(C(=O)NCCn2cc(SCC(N)=O)c3ccccc32)c1
 : 8 | 7
- COC(=O)C1CCc2cnn(Cc3ccc(Cl)c(Cl)c3)c2C1 (configuration not stated)
 : 5 | 1
- C#Cc1cccc(NC(C)C(=O)NC(C)c2ccccc2)c1 (configuration not stated)
 : 4 | 1
- NC(=O)c1nc(CN2CCCC(CCc3ccccc3C(F)(F)F)C2)no1 (configuration not stated)
 : -2 | -4
- O=C(CSc1nnc(NC(=O)c2ccccc2C(F)(F)F)s1)Nc1nccs1
 : 5 | 8

# The listing continues.
# Value order – NPYLR7 ag | NPYLR7 ag max-min
- Cn1ncc(Cl)c1C(=O)Nc1nc2ccc(Cl)cc2s1
 : 4 | 2
- COc1ccccc1S(=O)(=O)N(CCN(C)C)C1CCCC1
 : -6 | -12
- O=C(C=Cc1ccco1)Nc1nc2ccccc2s1
 : 17 | 10
- Cc1noc(NS(=O)(=O)c2cccc3c(N(C)C)cccc23)c1C
 : -13 | -17
- CCCC(=O)N1CCN(c2ccc(Nc3cc(C)ccn3)nn2)CC1
 : 13 | 6
- O=C(c1ccc(F)cc1)N1CCC(CN2C(=O)CSC2c2cccc(C(F)(F)F)c2)CC1 (configuration not stated)
 : 9 | 12
- BrC12CC3CC(C1)CC(c1nnc(-c4ccco4)o1)(C3)C2
 : 15 | 6
- Cc1nc2ncccn2c1C(=O)N1CCc2c(cc(-c3cccc(Cl)c3)c(=O)n2CC2CC2)C1
 : 13 | 0
- CC1CN(C2CCCCC2)c2nc3c(c(=O)n(CCCc4ccccc4)c(=O)n3C)n2C1 (configuration not stated)
 : 7 | 7
- Cn1ncc(N2CC=C(c3ccc(O)cc3)CC2)c(Cl)c1=O
 : -20 | -22
- CCCCN(CC(=O)Nc1cc(C(C)(C)C)nn1C(C)(C)C)C(=O)Nc1cccc(OC)c1
 : 0 | 16
- Cc1ccc(C(=O)NCCN2C(=O)C(=Cc3ccc4c(c3)OCO4)SC2=S)cc1F
 : 2 | 14
- Cc1ccc(C)c(S(=O)(=O)N2CCC(NS(=O)(=O)c3ccccc3)CC2)c1
 : 1 | 0
- CCOc1ccccc1-n1c(-c2ccccc2)cc(C(=O)NC(c2ccccc2)c2ccccc2)c1C
 : -9 | 0
- Cc1nc(-c2cccnc2)[nH]c(=O)c1CC(=O)N1c2ccccc2CC1C (configuration not stated)
 : 0 | 3

# Continued.
# Value order – NPYLR7 ag | NPYLR7 ag max-min
- CCCCCCCCn1c(C)c(C)n2c3c(=O)n(C)c(=O)n(C)c3nc12
 : 0 | 2
- COc1ccc(C=NNC(=O)Cc2cccn2C)c(OC)c1OC
 : -3 | -6
- Cn1c(=O)c2c(nc(Br)n2Cc2ccccc2Cl)n(C)c1=O
 : 1 | 27
- Cc1ccc(OCc2ccc(C(N)=O)cc2)c2c1C(C)CC2=O (configuration not stated)
 : -5 | -5
- CN(C)c1ccc(-c2ccnc3c2CC(C)(C(=O)NCCC(F)(F)F)O3)cc1 (configuration not stated)
 : 5 | 1
- N#CC(=C1NS(=O)(=O)c2ccccc21)c1nc2ccccc2n1Cc1ccccc1
 : -4 | -11
- N#Cc1cc2c(nc1SCC(=O)c1ccccc1)CCC2
 : 9 | 7
- O=C(CN1C(=O)C2(OCCO2)c2cc(Br)ccc21)c1ccc(Br)cc1
 : -1 | 0
- NC(=O)CSc1ncnc2sccc12
 : -1 | 0
- COc1cc(CN2CCC(C(=O)NC(c3ccc(C)cc3)c3ccccn3)CC2)cc(OC)c1 (configuration not stated)
 : -6 | 3
- O=C(Cn1cnnn1)NC1CCCN(Cc2c(F)cccc2F)C1 (configuration not stated)
 : 11 | 7
- CNC(=O)NC(=O)C(C)N1CCN(C(=O)c2ccoc2)CC1 (configuration not stated)
 : 10 | 9
- CCCCc1ccc(C(=O)N(CCCOC)CC(=O)N(CCc2c[nH]c3ccccc23)Cc2ccc(Cl)c(Cl)c2)cc1
 : -9 | -10
- C=CCNC(=O)C(NC(=O)c1cccc(C)c1)C1CCN(C(=O)c2ccc(Cl)cc2)CC1 (configuration not stated)
 : -21 | -21
- Cc1cc(N2CCCN(Cc3cnc(CC4CCCC4)[nH]3)CC2)ccn1
 : 8 | 5

# Next part
# Value order – NPYLR7 ag | NPYLR7 ag max-min
- C#CCn1c(-c2nnc(CC)o2)cc2ccccc21
 : -7 | -7
- Cc1ccc(CN2CC(C(=O)NCc3cc(C(C)C)on3)CC2=O)cc1 (configuration not stated)
 : 22 | 9
- COc1cccc(C2NS(=O)(=O)N=C3CCCCCN32)c1OC(F)F (configuration not stated)
 : 2&11 | 1&10
- C=CCn1c(SCc2ccc(CC(=O)OCC(=O)c3ccccc3)cc2)nnc1-c1cc(-c2ccccc2)nc2ccccc12
 : -6 | -8
- CCOC(=O)N1CCN(c2c(NC3CCCC(C)C3C)c(=O)c2=O)CC1 (configuration not stated)
 : 4 | 6
- Fc1ccc(CN2CCCN(c3nc(Cc4ccccc4)nc4c3cnn4-c3ccccc3)CC2)cc1
 : 10 | 11
- Cc1oc(C)c(-c2ccccc2)c1C(=O)NC(c1ccccc1)c1ccc(Cl)cc1 (configuration not stated)
 : -6 | -13
- O=C(CSc1nc(=O)n(CC2CCCO2)c2c1CCC2)NCc1ccccc1 (configuration not stated)
 : -5 | -12
- O=C(c1ccco1)N(CCN1CCCCC1)CC1CCCN(C2CCCC2)C1 (configuration not stated)
 : -2 | -5
- COc1ccc(OCc2nc3ccccc3c3ccccc23)c([N+](=O)[O-])c1
 : 4 | 3
- COc1cccc(C2c3[nH]c4ccccc4c3CCN2C(=O)CCc2cnn(C)c2)c1OC (configuration not stated)
 : 1 | -1
- O=C1NC2(CCN(C(=O)COc3ccccc3)CC2)Nc2cccc(Cl)c21
 : 0 | 9
- O=C(CCCN1C(=O)c2cccc3cccc(c23)C1=O)NCCCO
 : 4 | 6
- COc1ccc(-c2nc3ccccn3c2NC(=O)C2CCCCC2)cc1OC
 : 4 | 5
- COc1cc(C=NN2CCN(Cc3ccc(C)cc3C)CC2)cc(OC)c1OC(C)=O
 : -3 | -7

# The listing continues.
# Value order – NPYLR7 ag | NPYLR7 ag max-min
- O=C1C[C@H]2CC[C@@H](CN1)N2C(=O)Cc1ccc(NC(=O)C2CC2)cc1
 : 4 | 0
- CN(C)CCCNc1nc2cc(-c3ccccc3CO)sc2c(=O)n1C
 : 12 | 6
- CC(=O)c1cc(C(=O)N(C)C(C)c2ccccc2)n(C)c1 (configuration not stated)
 : -2 | 0
- CCc1nc2ccc(C(=O)NCCC(C)C)cn2c1N(C)Cc1ccc(N(C)C)cc1
 : 2 | -10
- Nc1cc(N)nc(SCc2cc(=O)n3ccsc3n2)n1
 : 2 | -1
- COc1ccccc1/C=C/C1=NC(=C\c2ccc(OC(C)=O)cc2)/C(=O)O1
 : -2 | -7
- Cc1ccc(N2C(=O)/C(=C/c3ccc([N+](=O)[O-])cc3)C=C2c2ccccc2)cc1C
 : 1 | 11
- CC(C)n1ncc2cc(NC(=O)N3CCCC(C(F)(F)F)C3)cnc21 (configuration not stated)
 : -2 | -3
- COc1cc(COC2CCCN(C(=O)c3ccccc3)C2)cc(OC)c1 (configuration not stated)
 : -2 | 4
- CCn1ccnc1CN1CCc2c([nH]c3ccccc23)C1c1cccc(OC)c1 (configuration not stated)
 : 0 | -4
- COCc1cc(C)nc(N/N=C\c2cccc(Br)c2)c1C#N
 : 2 | -2
- CCOc1ccccc1N1CCN(C(=O)c2csc(CSc3nnc(-c4ccco4)n3-c3ccc(Cl)c(Cl)c3)n2)CC1
 : 16 | 25
- CCOCCN1CCN(C(=O)c2ccc(NC(=O)c3ccoc3C)cc2)CC1
 : 3 | 2
- CNC(=O)CC1C(=O)N(Cc2ccccc2)C(=S)N1NC(=O)c1cccc(F)c1 (configuration not stated)
 : -6 | -11
- CC(C)n1nnnc1SCC(=O)c1c(N)n(C2CC2)c(=O)[nH]c1=O
 : 0 | 0

# (more compounds)
# Value order – NPYLR7 ag | NPYLR7 ag max-min
- N#CC(C#N)=C/C(F)=C\C(C#N)C#N
 : 11 | 16
- CCOC(=O)c1cccc(NC(=O)N2CCN(CC(OCc3ccc(C)cc3)c3cccc(OC)c3)CC2)c1 (configuration not stated)
 : -2 | 10
- Cc1ccc(NC(=O)Cn2c(=O)n(Cc3ccc4c(c3)OCO4)c(=O)c3oc4ccccc4c32)cc1C
 : 3 | 0
- CO[C@H]1[C@H](NC(=O)Cc2cccs2)c2ccccc2C12CCN(CC#Cc1ccccc1)CC2
 : 12 | 4
- CCN(Cc1ccc(Cl)cc1)C(=O)c1ccc(Cl)cn1
 : 5 | 4
- CCOC(=O)c1cc(-c2cccc(OC)c2)n(-c2ccc(C(=O)NCCCOC(C)C)cc2)n1
 : -3 | -2
- CC1CCCN(C(=O)COc2ccccc2C(N)=O)C1 (configuration not stated)
 : -5 | -6
- CN(C)N=Nc1nc[nH]c1C(N)=O
 : -4&-5 | -6&-7
- COc1cc(C(=O)Nc2ccc3nc(NC(C)=O)sc3c2)cc(OC)c1OC
 : -5 | -8
- O=C(/C=C/c1c(F)cccc1F)Nc1ccc(-c2nnco2)cc1
 : -7 | -8
- NC(=O)CCCNC(=O)CCc1cc(Br)cs1
 : 1 | 0

# Compound activity deposited in PubChem BioAssay by Fisher Drug Discovery Resource Center.

# Some of the compounds tested; count on the stated rates, not on these rows.
